Source: PubChem BioAssay
Vaccinia mCherry: vaccinia inhibition (mCherry reporter) | Vaccinia virus mCherry reporter infection, fluorescence; about a quarter of the inactives have no number | Potency, µM (top dose mostly 36.5 µM), for the others: at the top dose activity change, negative = inhibition, most hits filed as inhibitors | hit rate 0.63% among 310,000; active = well fitted inhibition curve with a large enough effect; inconclusive = small, poorly fitted or top-dose-only effect; inactive = no such curve, though single readings can be large or run the other way; tested in A549 cells; note: nearly all actives have a fitted effect of over 35% in size; inactives centre near -10
Vaccinia Venus: inhibitors of vaccinia virus (Venus reporter). AID 720580. hit rate 0.46% among 330,000. Vaccinia virus Venus reporter expression, fluorescence. Potency, µM (top dose mostly 36.5 µM), for the others: at the top dose activity change, negative = inhibition, hits mostly inhibitors; active means well fitted inhibition curve with a large enough effect; inconclusive means small, poorly fitted or top-dose-only effect; inactive means no such curve, though single readings can be large or run the other way; tested in A549 cells; note: nearly all actives have a fitted effect of over 30% in size; inactives centre near -10
Starred values were filed as active, the others as inactive; i = inactive; ? = inconclusive; . = no result given; [ ] = remark or other dose. % is set by controls: 0 for no effect and ±100 for the full control effect; potency is the fitted concentration of half-maximal effect.

SMILES | Vaccinia mCherry | Vaccinia Venus
COc1ccc(N2CC(C(=O)Nc3cccc(OC(C)C)c3)CC2=O)cc1 (centres undefined) | -7% | -2%
Cc1ccc(C2C(C#N)=C(N)N(N(C)C)C3=C2C(=O)CCC3)cc1 (centres undefined) | -8% | -13%
Cc1c(CC(=O)N2C[C@H]3C[C@@H](C2)c2cccc(=O)n2C3)c(=O)oc2c(C)c(O)ccc12 | 20% | 5%
c1ccc(CN2CCOCC2)nc1 | -12% | 0%
N#C/C(=C/c1ccc(CNS(=O)(=O)c2ccccc2)o1)C(=O)NCc1ccccc1 | -15% | -16%
COc1cc(C(CCN2CCCC(C)C2)c2c(OC)cc(OC)c3c2OC(=O)CC3c2ccc(N(C)C)cc2)cc(OC)c1OC (centres undefined) | i | -18%
Cc1cc(Br)ccc1NC(=O)CN(C)C(=O)c1cc([N+](=O)[O-])ccc1N1CCOCC1 | -20% | -16%
CCCCOc1cccc2c(=O)n(CC(=O)Nc3ccc4c(c3)OCCO4)ccc12 | -8% | -20%
C=C(C)COc1ccc(-c2n[nH]c(C)c2-c2ccc(OC)c(OC)c2)c(O)c1 | ? | ?
CCC1(C(N)=O)CC2C=CC1C2 (centres undefined) | -6% | 1%
COc1cccc2cc(C(=O)NCCc3c(C)[nH]c4ccc(F)cc34)c(=O)oc12 | -7% | -1%
C=C(C)CSc1nnc(-c2cccc(S(=O)(=O)N(C)C)c2)n1-c1cc(OC)ccc1OC | i | -1%
O=C1Nc2ccccc2O/C1=C\c1ccccc1 | -23% | 3%
Cc1cc(N2CCN(C)CC2)nc2ccc(NC(=O)CCC(=O)NCCCOC(C)C)cc12 | -2% | -11%
Cc1ccsc1C(=O)N1CCCC(CO)(Cc2ccccc2)C1 (centres undefined) | -18% | -22%
O=C(CC1N=C2c3ccccc3N=C(SCc3ccc(Cl)cc3)N2C1=O)NCc1ccco1 (centres undefined) | ? | -28%
CC(C)C(C)NC(=O)COC(=O)c1cccc(C(=O)OCC(=O)NC(C)C(C)C)n1 (centres undefined) | i | -9%
COCCCN1C(=O)C(=O)/C(=C(/O)c2ccc(S(=O)(=O)N3CCOCC3)cc2)C1c1cccc(Cl)c1 (centres undefined) | i | -12%
CCN(C(=O)c1cnc(NC(C)C)cc1C(F)(F)F)c1ccc(Cl)cc1 | -7% | -20%
CCOc1ccc(N(CC(=O)Nc2cccc(F)c2)S(=O)(=O)c2c(C)noc2C)cc1 | 6% | -25%
O=c1oc2ccc3ccccc3c2cc1-c1nnc(-c2ccccc2)o1 | . | -13%
O=C(Nc1ccc2c(c1)CCC2)c1ccc(Br)s1 | -6% | -20%
Cc1ccccc1C(=O)N1CCC(C(=O)Nc2ccccn2)CC1 | -21% | -12%
COc1ccc(NC(=O)CCS(=O)(=O)c2cccc3nonc23)cc1Cl | i | ?
CN1CCN(c2cc(C(F)(F)F)nc3ccc(F)cc23)CC1 | i | -11%

Part of the list above, reformatted.
SMILES,Vaccinia mCherry,Vaccinia Venus
Cc1ccccc1C(=O)N1CCC(C(=O)Nc2ccccn2)CC1,-21%,-12%
COc1ccc(NC(=O)CCS(=O)(=O)c2cccc3nonc23)cc1Cl,i,?

Back to the main list with the 4 entries that preceded the break.
SMILES | Vaccinia mCherry | Vaccinia Venus
O=C(Nc1ccc2c(c1)CCC2)c1ccc(Br)s1 | -6% | -20%
Cc1ccccc1C(=O)N1CCC(C(=O)Nc2ccccn2)CC1 | -21% | -12%
COc1ccc(NC(=O)CCS(=O)(=O)c2cccc3nonc23)cc1Cl | i | ?
CN1CCN(c2cc(C(F)(F)F)nc3ccc(F)cc23)CC1 | i | -11%
CC1(C)Cc2c(sc(NC(=O)COc3ccc(Cl)cc3)c2C#N)C(C)(C)N1 | -4% | -21%
CC(=O)NCCN=C(C)c1sc2ccccc2c1O | . | -18%
O=P(C(=S)Nc1ccccc1Cl)(c1ccccc1)c1ccccc1 | -4% | -22%
COc1cccc(N2CC(C(=O)Nc3nnc(SCC(=O)Nc4ccc(NC(C)=O)cc4)s3)CC2=O)c1 (centres undefined) | -8% | -12%
CCOC(=O)C1(C)CCCCN1C(=O)c1ccco1 (centres undefined) | 6% | 1%
CCN(CC)C1CCN(Cc2cn[nH]c2-c2ccc(OC)c(F)c2)C1 (centres undefined) | i | -3%
COC(=O)C1=C(c2cccc(OC)c2OC)C[C@@H]2CC[C@H]1N2C(=O)NC(C)C | i | -2%
COc1ccc(-c2c(C)n([O-])c(C)c(C)[n+]2=O)cc1OC | 6% | 12%
CCn1nc(-c2ccccc2)c(-c2ccccc2)c(C(=O)Nc2nc(C)c(C(C)=O)s2)c1=O | -6% | -5%
CCOC(=O)C1CCN(Cc2ccc(C(=O)OC)cc2)CC1 | -14% | -12%
CC1=C(C(=O)Nc2ccccc2C)C(c2cccs2)n2nc(SCc3ccccc3)nc2N1 (centres undefined) | ? | -22%
CC(C)(C)c1ccc(OCCn2cc(C(=O)c3ccco3)c3ccccc32)cc1 | -10% | -19%
COc1ccc(OC)c(S(=O)(=O)NCC(c2cccs2)N2CCc3ccccc3C2)c1 (centres undefined) | i | -10%
O=C(c1sc2cc(F)ccc2c1Cl)N1CCN(c2cccc(Cl)c2)CC1 | -17% | -18%
CCOC(=O)c1cccc(NC(=O)C2CCCN(c3nnc(N4CCCC4=O)s3)C2)c1 (centres undefined) | i | -21%
O=C(NCC(c1ccco1)N1CCc2ccccc2C1)C(=O)Nc1ccccc1 (centres undefined) | i | -19%
O=C(CCC1CCCN(Cc2cccc3c2OCO3)C1)NCc1ccc(F)c(F)c1 (centres undefined) | ? | -7%
O=C(NCCc1nc2ccccc2[nH]1)/C(=C/c1ccco1)NC(=O)c1ccc(Br)o1 | -12% | -4%
COc1ccccc1C(c1c(N)n(C)c(=O)n(C)c1=O)C(C)[N+](=O)[O-] (centres undefined) | -9% | 2%
Cc1ccccc1C(=O)NCC(=O)N1CCN(c2ccccn2)CC1 | -15% | -4%
C=CCn1c(O)c(C(CC)=Nc2cccc(C(=O)O)c2)c(=O)[nH]c1=O | i | -8%
CC(/C=N/NC(=O)c1cccs1)=C\c1ccco1 | -9% | -5%
CCOC(=O)C1CCN(C(=O)Nc2ccc(NC(=O)C3CCN(C(=O)OCC)CC3)cc2)CC1 | -12% | -12%
CN(c1ccccc1)S(=O)(=O)c1cccc(NC(=O)CN2C(=O)NC3(CCCC3)C2=O)c1 | -10% | -26%
C#CCOc1c(Br)cc(/C=N/O)cc1OCC | . | -11%
New compounds follow.
SMILES | Vaccinia mCherry | Vaccinia Venus
Cc1ccn2c(=O)c(C(=O)O)cnc2c1 | i | 1%
Cc1cccc(NC2=NCC(=O)N2Cc2cccs2)c1 | -6% | -19%
N#CC1=C(N)N(c2ccccc2C#N)C2=C(C(=O)CCC2)C1c1ccsc1 (centres undefined) | -15% | -7%
O=C(COC(=O)CNC(=O)c1ccccc1)Nc1nnc(-c2ccccc2)o1 | -6% | -6%
O=C(Nc1ccn(C2CC(OC(=O)c3ccccc3)C(CO)O2)c(=O)n1)c1ccccc1 (centres undefined) | . | 0%
CC(C)(C)c1nc(SCC(=O)Nc2nc3c(s2)CCCC3)c2ccccc2n1 | ? | 22%
CC(NC(=O)c1ccc(CS(=O)(=O)c2cccc(C(F)(F)F)c2)o1)c1ccc2c(c1)OCCO2 (centres undefined) | -10% | -14%
O=C(c1ccco1)N(Cc1cccs1)c1ccc(F)cc1 | -1% | -8%
CC(C)(C)c1ccc(OCC(=O)NCCN2CCCC2)cc1 | -8% | -8%
Cc1ccc(-c2ccccc2NC(=O)CCl)o1 | . | 2%
COc1ccc(C(=O)N/C(=C\c2cc(OC)c(OC)cc2[N+](=O)[O-])C(=O)NCC(=O)O)cc1 | -19% | 5%
COC(=O)c1[nH]cnc1C(=O)c1ccccc1 | . | -1%
Fc1cccc(Cl)c1CNCCSc1nnnn1-c1ccccc1 | -3% | -10%
CC1CCCC(NC(=O)C2N(CCCN3CCCC3)C(=O)C3C(C(=O)Nc4ccc(Cl)cc4)C4C=CC32O4)C1C (centres undefined) | -2% | -10%
COc1ccc(NC(=O)Nc2ccc3c(c2)C(=O)N([C@@H](C)CO)C[C@@H](C)[C@@H](CN(C)S(=O)(=O)c2cn(C)cn2)O3)cc1 | i | -15%
CCOC(=O)C(=O)NNc1cccc(C)c1C | -2% | -15%
CC1=CC(=O)N(c2ccn(C)n2)C1=O | i | 7%
CCOC(=O)c1cc(-c2ccc(C)cc2)n(CCC(=O)Nc2nc3c(C)cccc3s2)c1C | i | -14%
COc1ccc(C(=O)NCCc2ccc(C)cc2)cc1OC1CCN(C(C)=O)CC1 | -10% | -10%
O=C(Nc1ccc(Cl)cc1Cl)c1cc(S(=O)(=O)N2CCC3(CC2)OCCO3)ccc1F | -5% | -12%
O=C(COC(=O)c1cc([N+](=O)[O-])ccc1NCCO)c1ccc(Cl)cc1 | -30% | -15%
Cc1ccn2c(=O)nc(SCC(=O)Nc3ccc4c(c3)OCCO4)nc2c1 | -16% | -11%
CCOC(=O)C1=C(COC(=O)C(CC)Oc2ccccc2)NC(=O)NC1C (centres undefined) | i | -15%
Cc1ccc(S(=O)(=O)N(C)C)cc1NC(=O)COC(=O)Cc1cccs1 | -6% | -1%
Cc1ccc(NS(=O)(=O)c2ccc(Cl)s2)nc1 | -14% | -3%

Single entries from the results shown:
Cc1ccc(-c2ccccc2NC(=O)CCl)o1 | Vaccinia Venus: 2%
CC(C)(C)c1nc(SCC(=O)Nc2nc3c(s2)CCCC3)c2ccccc2n1 | Vaccinia Venus: 22%
COC(=O)c1[nH]cnc1C(=O)c1ccccc1 | Vaccinia Venus: -1%
Fc1cccc(Cl)c1CNCCSc1nnnn1-c1ccccc1 | Vaccinia Venus: -10%
O=C(Nc1ccn(C2CC(OC(=O)c3ccccc3)C(CO)O2)c(=O)n1)c1ccccc1 (centres undefined) | Vaccinia Venus: 0%

More records follow:
SMILES | Vaccinia mCherry | Vaccinia Venus
COc1cc(NC(=O)Cn2ncc3c2-c2ccccc2OC3)cc(OC)c1OC | ? | -28%
Cc1nc(CC(=O)NNS(=O)(=O)c2cccc(Cl)c2Cl)cs1 | -9% | -13%
COc1ccccc1C(=O)NCCC(=O)Nc1ccc(C)cn1 | i | -7%
COc1ccc(NC(=O)C2C3C=CC4(O3)C2C(=O)N(CCCN2CCCC(C)C2)C4C(=O)NC2CCCCC2)cc1 (centres undefined) | 7% | -4%
Cc1ccc(C)c(S(=O)(=O)N2CCN(C(=O)CSC(=S)N3CCCC3)CC2)c1 | i | -11%
CCN(CC)S(=O)(=O)c1ccc2c(c1)c(=O)c(C(=O)N1CCN(c3cc(Cl)ccc3C)CC1)cn2C | -26% | -11%
CCn1c(=O)cc(SCC(=O)NCCc2cccc(C)c2)c2ccccc21 | -15% | -5%
COc1ccc(C2CC(c3ccccc3)n3nc(NC(=O)c4cccs4)nc3N2)cc1 (centres undefined) | -3% | -16%
O=C(NCc1ccccc1)c1ccc(S(=O)(=O)Nc2cccc(C(F)(F)F)c2)cc1 | -11% | -14%
CCOC(=O)c1c(-c2ccccc2)csc1NC(=O)c1ccc(S(=O)(=O)N2CCOCC2)cc1 | i | 11%
Cc1cc(C)cc(N(CC(=O)NC2CCCC2)C(=O)CCC(=O)Nc2cc(C)ccn2)c1 | -15% | -12%
O=C(Nc1ccc(N2CCOCC2)cc1)Nc1cnsn1 | i | -16%
Cc1cc(C)c(C#N)c(SCCS(=O)(=O)Cc2ccc(Cl)cc2)n1 | -18%[1.46 µM] | -17%
Cc1ccc(S(=O)(=O)Nc2ccccc2CNc2cccc(C)n2)cc1 | -2% | -10%
CCOc1ccc(S(=O)(=O)N2CCN(c3ccc(Cl)c(Cl)c3)CC2)c2ccccc12 | -16% | 4%
CCOC(=O)N1CCN(C(=O)c2nn(C)c3c2CSc2ccccc2-3)CC1 | 11% | -7%
O=C(CSc1nnc(Cc2cccs2)n1-c1ccccc1)Nc1ccc2c(c1)OCCO2 | . | -3%
Cc1cccc2c1cnn2C(=O)CCC(=O)NCC(C)c1ccccc1 (centres undefined) | i | -11%
Cc1noc(C)c1-c1cc(NCc2ccccc2)ncn1 | i | 0%
COc1ccccc1C(=O)OCC(=O)Nc1ccc(OC(F)F)cc1 | . | -25%
O=C(NCCN1CCN(c2ccccc2)CC1)C1CCN(S(=O)(=O)c2cccs2)CC1 | -25% | -19%
CCOC(=O)c1c(C)[nH]c(C(=O)COC(=O)C2CC2C)c1C (centres undefined) | . | -8%
CN(C)CC1CCCCC1OC(=O)/C=C/c1ccc(Cl)cc1Cl (centres undefined) | -20% | ?
CCCS(=O)(=O)N1CCC(C(=O)NCCc2ccccc2)CC1 | . | -3%
Cc1cc(C)n(-c2ccc(C(=O)O)cc2[N+](=O)[O-])n1 | i | -7%
Oc1ccccc1C1OCC2(CO1)COC(c1ccccc1O)OC2 (centres undefined) | -19% | -14%
O=C1[C@H]2[C@@H](c3ccc(F)cc3)N3C(=O)N(c4ccc(C(F)(F)F)cc4)C(=O)[C@@]3(Cc3ccccc3)[C@H]2C(=O)N1C1CCCCC1 | i | -26%
C=CCCN([C@H](CO)Cc1ccccc1)S(=O)(=O)c1ccccc1Br | -8% | -11%
Cc1ccnc(SCCn2c(N3CCOCC3)nc3c2c(=O)[nH]c(=O)n3C)n1 | -14% | -9%
COc1ccc(-c2cnnc(N/N=C/c3ccc(OC)c(OC)c3)n2)cc1 | -8% | -4%

Single records, from the list above. Order of values: Vaccinia mCherry	Vaccinia Venus
COc1ccccc1C(=O)OCC(=O)Nc1ccc(OC(F)F)cc1 is listed as .	-25%
Cc1ccnc(SCCn2c(N3CCOCC3)nc3c2c(=O)[nH]c(=O)n3C)n1 is listed as -14%	-9%
CCn1c(=O)cc(SCC(=O)NCCc2cccc(C)c2)c2ccccc21 is listed as -15%	-5%
